Screens as filed in PubChem.
GLA inh pH 4.5: alpha-galactosidase A (human) inhibition, pH 4.5; 230,000 tested, under 10 active; activity change, negative = inhibition, % at 105 µM; P06280; purified enzyme, 4-MU-alpha-Gal fluorescence, pH 4.5; inconclusive = small, poorly fitted or top-dose-only inhibition, or a rising curve; inactive = flat fitted curve, though single readings scatter; no compound was filed as active;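 further: 0% = full activity with enzyme and -100% = basal without enzyme; dose as in the result columns while the protocol names 77 µM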
miR-21 reporter: raises the signal of a miR-21 reporter. HeLa miR-21 FLuc reporter, luciferase, 48 h. Potency, µM (highest dose often 38.3 µM), without a hit: at the top dose reporter change, positive = more light. 340,000 tested, under 10 active; active = well fitted rising curve with a large enough effect; inconclusive = small, poorly fitted or top-dose-only effect; inactive = no such curve, though single readings can be large or run the other way;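 further: % of control where 0% means no effect; miR-21 action dims this reporter so a rising signal means less miR-21 action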
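HeLa cells endogenously expressing miR-21, stably carrying CMV-driven firefly luciferase with a downstream miR-21 binding site, 2000 cells/well. Titrations up to approximately 40 uM, 48 hours; luciferase luminescence read.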
Rango release inh: prevents RanGTP from dissociating the Rango-importin beta complex. Biochemical FRET Rango-importin beta, RanGTP-induced dissociation. O95149+P62826. actives 0.071% (n = 340,000). Potency, µM (top dose mostly 46.1 µM), for inactives: at the top dose activity change, negative = inhibition; active means falling FRET ratio curve, often poorly fitted, with flat reads before Ran was added; inconclusive means other falling curves, or compound fluorescence or quenching; inactive means flat or rising ratio curve;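 further: potency means the concentration at half of the fitted maximal effect; % of control where 0% means no effect; nearly all actives have a fitted effect of over 45% in size; -100% = wells without RanGTP and RCC1; the record marks most hits as doubtful in a second field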
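Recombinant Rango FRET biosensor (EYFP–snurportin 1 IBB–cerulean CFP10) at 0.1 uM premixed with 0.25 uM importin beta in PBS, 1 mM DTT, 0.02% Tween-20, 0.1% BSA. Compound added 5 min; RanGTP-RCC1 (0.6 uM Ran, 2 mM GTP, 0.2 uM RCC1) then triggers release, read at 45 min.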
Rango-impB inh: Rango-importin beta binding inhibition | Q14974 | Rango CFP/YFP FRET sensor + importin beta, 45 min | Potency, µM (top dose mostly 92.2 µM), without a hit: top-dose inhibition of complex formation | actives 0.031% (n = 340,000) | AID 540263; active = rising FRET ratio curve, often small or poorly fitted; inconclusive = mostly compound fluorescence or quenching in the first reads; inactive = flat curves in all reads;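 further: potency means the concentration at half of the fitted maximal effect; 0% = DMSO wells and 100% = buffer wells lacking importin beta; nearly all actives have a fitted effect of over 15% in size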
Target sequence (Q14974 whole entry, looked up): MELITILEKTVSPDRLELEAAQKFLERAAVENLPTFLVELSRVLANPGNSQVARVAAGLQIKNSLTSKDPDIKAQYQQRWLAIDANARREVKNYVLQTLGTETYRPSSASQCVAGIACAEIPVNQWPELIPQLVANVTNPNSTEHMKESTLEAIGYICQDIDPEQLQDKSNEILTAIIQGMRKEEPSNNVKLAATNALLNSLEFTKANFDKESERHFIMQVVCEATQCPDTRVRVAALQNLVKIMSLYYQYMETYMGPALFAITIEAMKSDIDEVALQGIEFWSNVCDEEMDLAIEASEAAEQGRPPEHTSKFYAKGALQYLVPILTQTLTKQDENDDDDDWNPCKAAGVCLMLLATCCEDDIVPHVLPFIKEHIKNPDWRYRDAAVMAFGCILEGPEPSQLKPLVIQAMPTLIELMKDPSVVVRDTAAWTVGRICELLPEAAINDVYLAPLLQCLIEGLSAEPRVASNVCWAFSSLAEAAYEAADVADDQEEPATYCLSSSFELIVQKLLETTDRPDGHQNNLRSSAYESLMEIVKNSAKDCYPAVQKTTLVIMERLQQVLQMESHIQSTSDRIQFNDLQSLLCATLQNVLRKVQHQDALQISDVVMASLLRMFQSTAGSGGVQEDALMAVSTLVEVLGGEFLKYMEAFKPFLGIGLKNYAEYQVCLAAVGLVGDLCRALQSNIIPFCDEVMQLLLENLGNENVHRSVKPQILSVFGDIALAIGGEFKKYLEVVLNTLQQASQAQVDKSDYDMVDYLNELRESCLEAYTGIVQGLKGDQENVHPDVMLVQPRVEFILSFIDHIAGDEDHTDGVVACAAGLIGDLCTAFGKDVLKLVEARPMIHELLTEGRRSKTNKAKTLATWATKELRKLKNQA
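FRET biosensor (snurportin 1 IBB flanked by EYFP and cerulean), 50 nM, with compound 5 min, then 0.125 microM importin beta in PBS, 1 mM DTT, 0.02% Tween-20, 0.1% BSA. CFP/YFP ratio read after 45 min at room temperature; pre-read flags interference.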
* marks the source's active call; other numbers are inactive results; ? = inconclusive; . = no result given. The list is partial; rates above refer to the full screens.

Structure	GLA inh pH 4.5	miR-21 reporter	Rango release inh	Rango-impB inh
O=C(COc1ccc(Cl)cc1Cl)NCCCCc1ccccc1	2	-7%	4%	-0.2%
CCCCCC(=O)Nc1nc2ccccc2[nH]1	1	-33%	-3%	-1.2%
C=CCNC(=O)c1ccc(-n2cccc2)cc1	-4	-28%	-4%	-3.9%
N/C(=N\OC(=O)CCC1CCCCC1)c1ccc([N+](=O)[O-])cc1	11	-14%	0%	0.5%
Cc1cc(OCC(=O)OCC(=O)N2CCc3ccccc32)ccc1Cl	.	.	-14%	0.7%
c1ccc(-n2cc(CN3CCCC(CN4CCCC4)C3)c(-c3ccc4c(c3)OCO4)n2)cc1 (stereo not drawn)	-5	-34%	-9%	-1.2%
CCCCCn1c(=O)[nH]c2cc(C(=O)NCCN3CCCCC3C)ccc2c1=O (stereo not drawn)	.	0%	-16%	3.1%
Cc1oc(-c2ccccc2F)nc1CS(=O)(=O)CC(=O)NCCN1CCCC1	.	-7%	1%	-2.1%
CCC(C)(C(=O)NC1CCCCC1)N(CC1CCCO1)C(=O)CNC(=O)c1ccccc1 (stereo not drawn)	0	-1%	0%	1.6%
O=C(Nc1cnn(Cc2ccc(Cl)cc2Cl)c1)c1noc2c1CCCC2	-4	-1%	4%	-2.3%
Cc1ccccc1NC(=O)CCCCC(=O)Nc1ccccc1C	.	4%	-4%	-2.3%
CCOCCOC(=O)Cn1cnc2scc(-c3ccc(C)cc3)c2c1=O	.	-1%	24%	-3.0%
COc1cccc(NC(=S)NCCC(c2ccccc2)c2ccccc2)c1	2	17%	6%	-1.2%
CCN(CC)CCn1c(=S)[nH]c2cc(C(=O)N3CC=C(c4ccccc4)CC3)ccc2c1=O	2	1%	.	.
Cn1c(-c2ccc(F)cc2)cnc1NCc1cc2c(cc1[N+](=O)[O-])OCO2	4	-33%	1%	6.1%
CSc1ccccc1C(=O)Nc1cccc(N(C)S(C)(=O)=O)c1	-9	-6%	-16%	-4.9%
COc1ccc(-n2nnnc2/C(=C/N(C)C)C(=O)c2ccccc2)cc1	-2	-2%	-4%	-0.9%
CCOC(=O)c1c(C)nc2ccccc2c1-c1ccccc1	2	-13%	-2%	4.7%
O=C(/C=C/c1ccco1)NC(=S)Nc1ccc(N2CCOCC2)c(Cl)c1	3	18%	-7%	-1.0%
O=C(COC(=O)c1cccc(OC(F)F)c1)Nc1ncccn1	.	.	-14%	2.7%
COc1ccc(CC(=O)Nc2cc(C)on2)cc1OC	-2	-3%	0%	-1.2%
CCOc1ccc(Br)cc1CC(=O)O	.	.	-7%	0.7%
CN1CCCC1=Nc1c2c(nc3ccccc13)N(C)CC2	2	-1%	-14%	?
COc1cc(/C=C/C(=O)c2ccc(Cl)s2)cc(OC)c1O	-9	?	?	?
O=C(CCCCCN1C(=O)c2ccccc2C1=O)Nc1cccc(O)c1	.	-5%	10%	0.8%
CCNc1nc(N)nc(-c2cc(Cl)ccc2O)n1	2	-43%	-3%	?
Cc1cc(OCC(=O)Nc2ccncc2)ccc1[N+](=O)[O-]	-8	7%	9%	0.5%
CCc1c(C)c(C#N)c2nc3ccccc3n2c1NCCN(C)C	-18	-14%	?	?
CCn1c(SCC(=O)NC2CCCCC2)nnc1-c1ccccn1	.	0%	19%	-0.1%
COc1ccccc1CN1CCN(C(CC(C)C)c2nnnn2Cc2cccs2)CC1 (stereo not drawn)	-17	5%	-8%	0.0%
CCCCC1CCC(C(=O)Nc2ccccc2N2CCOCC2)CC1 (stereo not drawn)	.	.	?	-0.5%
Nc1cccnc1Oc1ccccc1F	5	-11%	-11%	0.4%
COC(C(=O)Nc1ccnn1C1CCN(Cc2cnn(C)c2)CC1)c1ccccc1 (stereo not drawn)	.	-5%	-4%	-0.3%
CN(CCc1ccccn1)C(=O)CC1C(=O)NCCN1Cc1ccc(-c2ccccc2)cc1 (stereo not drawn)	0	2%	1%	-2.7%
Cc1ccccc1OCC(=O)Nc1nnc(C2CC2)s1	.	.	20%	1.2%
COC(=O)c1cc(S(=O)(=O)N2c3ccccc3CC2C)c[nH]1 (stereo not drawn)	.	10%	1%	-0.4%
Cc1c(NC(=O)c2c(F)c(F)c(F)c(F)c2F)c(=O)n(-c2ccccc2)n1C	0	-7%	1%	0.8%
Cc1ccc(N2C(=O)CC(NNC(=O)c3cccc(S(=O)(=O)N4CCCC4)c3)C2=O)cc1 (stereo not drawn)	-11	-11%	-2%	2.4%
COc1cc2c(cc1OC)C(=S)NC1(CCCC1)C2	2	2%	1%	1.8%
Cc1cccc(-c2cccc(NC(=O)C3CCCN(C(=O)c4csc(C)n4)C3)c2)c1 (stereo not drawn)	.	14%	1%	2.0%
Cc1cccc(-n2c(CNC(=O)c3cccc([N+](=O)[O-])c3C)n[nH]c2=S)c1	-11	-9%	-6%	-1.2%
CN(C)c1ccc(/C=N/NC(=O)C(O)(c2ccccc2)c2ccccc2)o1	-7	-4%	-20%	-4.2%
O=C(CSc1nc2ccc(NC(=O)c3ccccc3C(=O)O)cc2s1)Nc1ccc(F)c([N+](=O)[O-])c1	.	3%	?	-3.3%
CCc1nc2c(c(SC)nn2-c2ccccc2)c(N)c1C(=O)OC	6	-2%	2%	5.7%
COc1ccc(N2CCN(CCOc3ccc4c(C)cc(=O)oc4c3)CC2)cc1	-10	-35%	1%	-1.6%
Nc1nc(Nc2ccc(Cl)cc2)nc(NCCO)c1[N+](=O)[O-]	-3	-15%	-12%	6.6%
Cc1ccc(S(=O)(=O)N2CCOCC2)cc1NC(=O)COC(=O)c1cnc(Cl)c(Cl)c1	.	.	0%	3.1%
COc1ccc(C)cc1NC(=O)C(OC(=O)Cn1cnc2c1c(=O)n(C)c(=O)n2C)c1ccccc1 (stereo not drawn)	.	.	-4%	-0.5%
CCn1c(Cc2ccccc2)nnc1SCC(=O)Nc1ccccc1O	3	-5%	-22%	-0.4%
O=C(CCCCl)NC(=S)Nc1cc(C(F)(F)F)ccc1N1CCOCC1	-8	24%	16%	0.7%
CCCCc1cc(=O)oc2cc(C)cc(OCC(=O)N3C[C@H]4C[C@@H](C3)c3cccc(=O)n3C4)c12	.	-2%	1%	0.1%
CCN(CC)S(=O)(=O)c1ccc(N2CCOCC2)c(NS(=O)(=O)c2cc(C(C)(C)C)ccc2C)c1	0	13%	3%	-4.6%
CCOC(=O)c1sc(=S)n(-c2ccc(C)cc2)c1N	-19	-8%	-8%	1.5%
CC(NC(=O)c1ccc(=O)oc1)c1ccccc1 (stereo not drawn)	-2	-1%	20%	4.4%
CC(C)CNC(=S)NNC(=O)c1csc2ccccc12	-4	-33%	4%	1.2%
CCC(C)(C(=O)Nc1ccccc1C)N(C(=O)CNC(C)=O)c1ccccc1C (stereo not drawn)	5	-3%	15%	-1.6%
CCOC(=O)C(Cc1ccccc1)c1ccnc2nc(N)nn12 (stereo not drawn)	10	-5%	11%	-3.5%
O=C(C1CCN(S(=O)(=O)c2ccc3c(c2)OCCO3)CC1)N1CCc2ccccc21	1	-4%	-8%	0.3%
Cc1nn(C(C)(C)C)c(OC(=O)CC(C)C)c1S(=O)(=O)c1ccccc1	.	2%	10%	1.2%
COc1cc(C(=O)N(C)C2CCCN(Cc3ccccc3F)C2)cc(OC)c1OC (stereo not drawn)	.	0%	-11%	-0.1%

An excerpt from above in order of their number in miR-21 reporter, rising:
SMILES	miR-21 reporter
O=C(COc1ccc(Cl)cc1Cl)NCCCCc1ccccc1	-7%
O=C(CCCCCN1C(=O)c2ccccc2C1=O)Nc1cccc(O)c1	-5%
CN(C)c1ccc(/C=N/NC(=O)C(O)(c2ccccc2)c2ccccc2)o1	-4%

Next section
Structure	GLA inh pH 4.5	miR-21 reporter	Rango release inh	Rango-impB inh
Cc1cc(=O)[nH]c(SCC(=O)N2CCC(C(N)=O)CC2)n1	6	-3%	-13%	0.0%
OCCOc1ccc(C2=NCCO2)cc1	-3	-18%	2%	-2.2%
COc1ccc(NC(=O)NS(=O)(=O)c2ccc(C)cc2)cc1OC	.	.	9%	?
COC(=O)C1SCC2C(=O)N(Cc3ccc(Cl)c(Cl)c3)CC(=O)N21 (stereo not drawn)	7	-5%	-3%	3.5%
O=C(CSc1nnc(CNC(=O)c2ccccc2F)o1)NCC1CCCO1 (stereo not drawn)	-9	-8%	-21%	-1.6%
CO/N=C(/CNC(=O)c1ccc(Cl)cc1Cl)c1ccc(Cl)cc1	0	-6%	32%	0.1%
Cc1onc(-c2ccccc2Cl)c1C(=O)Nc1sc2c(c1C#N)CCC2	-2	-1%	?	?
COc1cc(C2NC(=O)NC(c3ccccc3)=C2C(C)=O)c(Br)cc1OCC(N)=O (stereo not drawn)	.	-3%	1%	3.7%
Cc1cc(Cc2ccc([N+](=O)[O-])cc2)c(C)cn1	.	-1%	17%	4.1%
Cc1ccc(-c2nc3ncccc3o2)cc1N	.	-45%	8%	0.0%
CCOC(=O)N/N=C/c1c(C)nn(-c2cccc(C(F)(F)F)c2)c1Cl	7	14%	-12%	-2.1%
O=C(Oc1ccc(OC(=O)c2ccncc2)cc1)c1ccncc1	.	.	2%	5.0%
CC1(c2ccc3noc(-c4ccccc4)c3c2)OCCO1	-6	-1%	7%	0.0%
Cc1cc(C)n(Cc2ccc(Cl)c(Cl)c2)c(=O)c1S(=O)(=O)c1ccccc1	0	-9%	2%	0.5%
COc1ccc(NC(=O)c2cc(-c3ccc(C)cc3)on2)cc1OC	.	-3%	6%	5.7%
O=C(COC(=O)c1cc(Cl)ccc1O)NNC(=O)c1ccc([N+](=O)[O-])cc1	.	.	1%	-1.6%
CC(C)CCNC(=O)NC(=O)COC(=O)C1CCN(S(=O)(=O)c2ccccc2F)CC1	3	-3%	1%	0.2%
CNC(=O)COC(=O)c1ccc(Cl)c(S(=O)(=O)N2CCCC2)c1	-1	0%	4%	-1.5%
CN(C)CCOc1ccc(-c2c(-c3ccccc3)sc3ccccc23)cc1	.	.	12%	23%
Cc1c(C(=O)Nc2nc3ccccc3[nH]2)oc2c(Cl)cccc12	5	-29%	10%	0.3%
O=C1OC(c2ccc(Br)cc2)=N/C1=C\c1ccco1	8	5%	10%	-0.5%
N#Cc1c(/N=C/c2ccc(-c3ccc(C(=O)O)c(Cl)c3)o2)sc2c1CCCC2	.	.	-12%	2.2%
Cc1ccc(NC(=O)CC2NCCNC2=O)cc1 (stereo not drawn)	-9	-20%	1%	2.3%
CCc1ccc2c(c1)c1nc(C)sc1n2CC	-3	-20%	1%	-0.9%
O=C1CC(c2ccccc2)c2ccccc21 (stereo not drawn)	-1	-2%	-2%	4.5%
CC(C)(C)c1cc2nc3c(c(=O)n2[nH]1)CN(Cc1ccccc1)C3=O	-20	-7%	3%	?
CC(OC(=O)c1cccnc1Cl)C(=O)NCc1ccccc1 (stereo not drawn)	.	.	-5%	-1.4%
CCCCC(=O)Nc1nnc(S(=O)(=O)N(C)Cc2ccco2)s1	.	0%	-5%	-0.1%
CCn1c(=O)c(=O)[nH]c2cc(C(=O)N3CCN(c4ccccc4F)CC3)ccc21	6	-6%	-13%	0.7%
CC(=O)Nc1sc(N)nc1-c1ccccc1	-21	-1%	-12%	-1.7%
